Assay outcomes as filed in PubChem.
PAFAH1B3 inh = PAFAH1B3 (human) inhibition. Q15102. recombinant PAFAH1B3, FP-rhodamine probe, fluorescence polarization. inhibition, % at 3.39 µM. hit rate 0.28% among 340,000. AID 492972;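 active = inhibition above the screen-wide average of all tested compounds plus 3 SD, cut at about 25% in these data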;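 also: 0% = enzyme with DMSO only and 100% = wells lacking PAFAH1B3 protein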
ZTA counter = blocks Epstein-Barr virus ZTA, an EBNA-1 counter-screen. hit rate 0.15% among 320,000. P03206. ZTA-DNA binding, fluorescence polarization. AID 2234. inhibition, % at 11 µM; in the data active = inhibition above about 33%
LYPLA2 inh = LYPLA2 (human) inhibition in PME1 counter-screen. O95372. recombinant LYPLA2, FP-Rh probe fluorescence polarization. inhibition, % at 5.9 µM. hit rate 0.38% among 320,000. AID 2177;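 active = inhibition above the screen-wide mean plus 3 SD, limit set per campaign, cut at about 26% in these data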;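 also: 0% = LYPLA2 with DMSO and 100% = wells lacking LYPLA2 enzyme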
EBNA-1 inh = blocks EBNA-1 binding to DNA; hit rate 0.34% among 300,000; EBNA-1 DNA binding, fluorescence polarization; inhibition, % at 14.8 µM; in the data active = inhibition above about 28%
LYPLA1 inh = counter-screen for PME1 inhibitors: inhibitors of human LYPLA1. inhibition, % at 5.9 µM. hit rate 0.16% among 320,000. recombinant LYPLA1, FP-Rh probe fluorescence polarization. O75608. AID 2174;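 active = inhibition above the mean of all tested compounds plus 3 SD, set per campaign, cut at about 14% in these data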;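 also: inhibitors block serine hydrolase probe labeling of LYPLA1 so polarization falls; 0% = enzyme with DMSO and 100% = wells lacking LYPLA1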
PAFAH1B2 inh = inhibitors of human PAFAH1B2 | P68402 | recombinant PAFAH1B2, FP-rhodamine activity probe, fluorescence polarization | inhibition, % at 3.39 µM | hit rate 1.2% among 340,000 | AID 492953;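 active = inhibition above the mean of all tested compounds plus 3 SD, cut at about 24% in these data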;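 also: 0% = enzyme with DMSO and 100% = wells lacking PAFAH1B2; many of its hits are not listed in these tables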
Target sequence (P68402 whole entry, looked up): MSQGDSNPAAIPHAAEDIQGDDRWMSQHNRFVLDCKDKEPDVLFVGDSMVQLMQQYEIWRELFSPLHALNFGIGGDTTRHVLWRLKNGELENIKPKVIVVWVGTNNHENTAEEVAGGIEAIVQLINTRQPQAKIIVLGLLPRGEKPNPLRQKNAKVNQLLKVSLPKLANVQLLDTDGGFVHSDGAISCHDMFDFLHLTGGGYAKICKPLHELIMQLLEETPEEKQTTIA
PAFAH2 FP inh = inhibitors of human PAFAH2. recombinant PAFAH2, FP-rhodamine activity probe, fluorescence polarization. hit rate 0.99% among 340,000. inhibition, % at 3.39 µM. AID 492956;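 active = inhibition above the mean over all tested compounds plus 3 SD, cut at about 30% in these data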;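 also: inhibitors block probe labeling of enzyme so polarization drops; 0% = enzyme with DMSO and 100% = wells lacking PAFAH2 protein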
pPAFAH inh = pPAFAH (human) enzyme inhibition; Q13093; recombinant pPAFAH, FP-rhodamine probe fluorescence polarization; inhibition, % at 3.39 µM; hit rate 1.5% among 330,000; AID 463082;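 active = inhibition above the mean inhibition across the screen plus 3 SD, cut at about 25% in these data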;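 also: inhibitors block binding of the rhodamine activity-based probe so polarization drops; 0% = enzyme with DMSO and 100% = wells lacking pPAFAH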
Target sequence (Q13093 whole entry, looked up): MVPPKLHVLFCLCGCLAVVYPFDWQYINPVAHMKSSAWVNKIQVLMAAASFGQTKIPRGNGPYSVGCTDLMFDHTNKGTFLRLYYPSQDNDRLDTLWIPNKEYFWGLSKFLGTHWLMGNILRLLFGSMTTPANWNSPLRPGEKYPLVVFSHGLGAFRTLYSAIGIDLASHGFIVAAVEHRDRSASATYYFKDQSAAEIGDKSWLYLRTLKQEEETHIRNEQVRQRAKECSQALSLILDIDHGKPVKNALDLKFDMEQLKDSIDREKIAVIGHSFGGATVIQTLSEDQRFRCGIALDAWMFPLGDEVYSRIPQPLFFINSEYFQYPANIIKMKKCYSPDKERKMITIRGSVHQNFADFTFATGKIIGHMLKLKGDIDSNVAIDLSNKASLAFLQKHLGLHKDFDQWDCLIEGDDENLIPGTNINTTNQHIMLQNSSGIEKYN
* = called active by the depositor; nt = not tested or not shown.

molecule	PAFAH1B3 inh	ZTA counter	LYPLA2 inh	EBNA-1 inh	LYPLA1 inh	PAFAH1B2 inh	PAFAH2 FP inh	pPAFAH inh
COc1ccc(Cl)cc1N1C(=O)/C(=C\c2sccc2C)N=C1SCC(=O)NC1CC1	-1	-5	-10	4	-8	-1	2	8
N#Cc1nc(-c2ccc(OCc3ccc(Cl)cc3)cc2)oc1NCc1cccnc1	1	-11	4	5	0	2	4	6
Cc1cc(C)n(-c2ccc(S(=O)(=O)N3CCOCC3)cc2[N+](=O)[O-])n1	3	1	3	8	4	1	3	6
COc1ccc(-c2cn[nH]c2-c2ccc(OCc3ccc([N+](=O)[O-])cc3)cc2O)cc1OC	14	-11	-1	-3	-6	9	0	12
CCOc1cc(/C=N\Nc2ccc([N+](=O)[O-])cc2)ccc1OCC(=O)Nc1ccc(C)c(C)c1	7	2	-9	1	-4	-2	2	0
COc1cc(CCC(=O)N2CCN(c3cccc(C)c3C)CC2)cc(OC)c1OC	8	3	-8	4	-2	0	-8	7
O=C(Oc1ccccc1-c1csnn1)c1cccs1	-6	2	10	8	3	1	5	1
CC1CN(c2nc3c(c(=O)n(Cc4ccc(Cl)c(Cl)c4)c(=O)n3C)n2C)CC(C)O1 (stereo unspecified)	1	6	0	-1	-2	11	16	8
COc1cc(OC)c(OC)cc1CN(C)C(c1ccccc1)c1nnnn1-c1ccccc1C (stereo unspecified)	10	5	-5	-13	0	2	3	-4
CCOC(=O)c1[nH]c2ccc(F)cc2c1NC(=O)C1=COCCO1	4	-10	-1	4	-4	-3	-4	1
O=C(C1CC(=O)N(C2CCCC2)C1)N1CCN(c2ccccc2F)CC1 (stereo unspecified)	1	11	-2	2	0	-2	-5	4
COc1ccc(NC(=O)CSc2nc3c(c(=O)n2-c2ccccc2OC)SCC3)cc1	-1	-10	-6	-5	3	0	2	1
CCCCn1c(N2CCC(Cc3ccccc3)CC2)nc2c1c(=O)[nH]c(=O)n2C	-1	0	10	6	-2	1	4	23
Cc1ccc(Cn2c(NCCc3ccccc3)nc3c2c(=O)n(C)c(=O)n3C)cc1	11	-2	-1	9	1	2	7	8
COc1cc(/C=N/Nc2ccc(Cl)c(C(=O)O)c2)ccc1OC(=O)c1ccccc1F	8	-5	7	9	-1	9	14	16
CCN(CC)S(=O)(=O)c1cccc(C(=O)OCC(=O)NCCN2C(=O)CSC2=O)c1	-5	1	1	nt	-1	2	3	3
Cc1c(C=O)c2ccccn2c1C(=O)c1ccncc1	9	-5	6	-1	-2	-4	2	9
CCN(CCNC(=O)C1CCN(Cc2nc(-c3ccc(Cl)cc3)oc2C)CC1)c1ccccc1	9	18	10	-2	-2	5	7	6
O=C(CSc1nc2ccccc2nc1N1CCOCC1)N1CCN(c2ccccc2)CC1	-6	-12	6	-12	0	4	2	9
CCc1ccc(-c2nc(CN3CCC(C(=O)N4CCN(c5ccccc5)CC4)CC3)c(C)o2)cc1	-2	6	12	11	-2	3	1	7
CN1CCN(C(=S)c2cn(Cc3ccc(Br)cc3)c3ccccc23)CC1	8	-5	8	-15	0	1	2	7
N#CC(c1nc2ccccc2nc1N1CCOCC1)S(=O)(=O)c1ccccc1 (stereo unspecified)	2	7	2	3	0	8	11	4
CN=C1c2c(-c3ccccc3)c3cc(OC)ccc3n2CCN1C	1	-4	-3	10	0	-7	-2	1
Cc1ccccc1-c1nc(CN2CCC(C(=O)NCCCN3CCCC(C)C3)CC2)c(C)o1 (stereo unspecified)	6	13	-2	8	-3	5	-8	5
O=C1c2ccc(Cl)cc2S(=O)(=O)c2cccc(C(=O)N3CCN(c4ccc(Cl)cn4)CC3)c21	2	-7	5	nt	1	4	0	8

A stretch from further up:
molecule	PAFAH1B3 inh	ZTA counter	LYPLA2 inh	EBNA-1 inh	LYPLA1 inh	PAFAH1B2 inh	PAFAH2 FP inh	pPAFAH inh
COc1ccc(Cl)cc1N1C(=O)/C(=C\c2sccc2C)N=C1SCC(=O)NC1CC1	-1	-5	-10	4	-8	-1	2	8
N#Cc1nc(-c2ccc(OCc3ccc(Cl)cc3)cc2)oc1NCc1cccnc1	1	-11	4	5	0	2	4	6
Cc1cc(C)n(-c2ccc(S(=O)(=O)N3CCOCC3)cc2[N+](=O)[O-])n1	3	1	3	8	4	1	3	6

Next section
molecule	PAFAH1B3 inh	ZTA counter	LYPLA2 inh	EBNA-1 inh	LYPLA1 inh	PAFAH1B2 inh	PAFAH2 FP inh	pPAFAH inh
CN(C)c1ccc(-c2nn3c(-c4ccccc4Cl)nnc3s2)cc1	7	5	14	22	5	2	10	15
c1ccc(N2CCN(c3nc4ccccc4n4cnnc34)CC2)cc1	2	-13	-4	3	-7	1	2	5
CCN1CCN(C(c2ccccn2)c2c(NC(=O)c3ccccc3)sc(C)c2C)CC1 (stereo unspecified)	3	-20	8	-14	5	3	11	7
O=C(CCC(=O)N1CCOc2ccccc21)Nc1ccc(F)cc1F	6	11	4	9	1	5	1	1
CNC(=S)N/N=C/c1c(C)c(C(=O)c2ccc(F)cc2)n2ccccc12	-3	-15	-4	-20	-1	2	13	11
CC(=O)Nc1ccc(NC(=O)CSc2ccc(-c3ccco3)nn2)cc1	3	-2	5	-1	-1	-2	-7	3
CN1CCC(CN)(N2CCN(c3ccccc3)CC2)CC1	7	-5	-6	10	-2	4	-3	0
O=C(CSc1ccc(-c2ccccn2)nn1)NCc1ccc(Cl)cc1	-2	-1	0	2	-3	4	1	4
N#Cc1cccc(NC(=O)CSc2sc3c(O)cc(=O)[nH]c3c2C#N)c1	13	-7	-15	4	-15	15	40*	0
CC(C)n1c(NCCc2ccccc2)nc2c1c(=O)n(C)c(=O)n2C	7	-7	6	-3	2	2	3	0
CNC(=O)c1sc(Nc2ccc(OCc3ccccc3)cc2)nc1C	10	2	-2	-5	-5	7	10	23
O=C(NCCc1ccc(F)cc1)C(=O)Nc1cc2c3c(c1)CC(=O)N3CCC2	-2	3	6	-5	3	10	6	3
CN1CCN(C(=O)C2=C[C@@H](c3ccc(Br)cc3)C[C@@H](OCc3ccc(CO)cc3)O2)CC1	-8	-12	2	-5	-2	8	2	-6
COc1cc(CNc2ncnc3c2[nH]c2ccc(C)cc23)cc(OC)c1	17	-4	-24	9	-20	22	7	11
CCC(CO)Oc1cc(NCc2ccc(Cl)cc2Cl)c2ncn(C(C)C)c2c1 (stereo unspecified)	1	nt	nt	nt	nt	19	10	15
N#Cc1c(SCC(=O)Nc2nc3ccccc3s2)sc2c(O)cc(=O)[nH]c12	28*	-20	-12	nt	-16	19	35*	41*
COCCn1c(=O)c2c(nc3n2CC(C)CN3CCc2ccccc2)n(C)c1=O (stereo unspecified)	2	-21	4	-7	-2	4	1	7
COC(=O)c1[nH]c2ccc(C)cc2c1NC(=O)CN1CCc2cc(OC)c(OC)cc2C1	3	-20	1	1	3	-1	-4	7
CCOC(=O)c1[nH]c2ccc(OCC)cc2c1NC(=O)CN1CCC2(CC1)OCCO2	-1	-9	2	0	0	0	8	0
C=CCN1C(=O)c2ccc(C(=O)OCC(=O)N3CCN(c4ccccc4)CC3)cc2C1=O	7	-4	6	8	1	4	5	10
c1ccc(CC2CCN(C3=Nc4cccc5cccc3c45)CC2)cc1	-2	-2	-1	-6	-4	4	2	21
CCc1ccc(C2CC(c3ccccc3C)n3nc(N)nc3N2)cc1 (stereo unspecified)	8	0	-1	3	-5	10	4	0
Cc1ccc2cc(C)c(SCC(=O)Nc3cc(C)on3)nc2c1	1	-5	-1	-6	1	0	2	-5
Cc1cc(N2CCCC2=O)c(N)cc1N	-1	-2	-2	-12	-1	0	1	-3

Compounds shown so far that have a nitro group on carbon:
molecule	PAFAH1B3 inh	ZTA counter	LYPLA2 inh	EBNA-1 inh	LYPLA1 inh	PAFAH1B2 inh	PAFAH2 FP inh	pPAFAH inh
Cc1cc(C)n(-c2ccc(S(=O)(=O)N3CCOCC3)cc2[N+](=O)[O-])n1	3	1	3	8	4	1	3	6
COc1ccc(-c2cn[nH]c2-c2ccc(OCc3ccc([N+](=O)[O-])cc3)cc2O)cc1OC	14	-11	-1	-3	-6	9	0	12
CCOc1cc(/C=N\Nc2ccc([N+](=O)[O-])cc2)ccc1OCC(=O)Nc1ccc(C)c(C)c1	7	2	-9	1	-4	-2	2	0

Profiles, quoted from the list.
Shown for `CN1CCC(CN)(N2CCN(c3ccccc3)CC2)CC1` : PAFAH1B3 inh: 7; ZTA counter: -5; LYPLA2 inh: -6; EBNA-1 inh: 10; LYPLA1 inh: -2; PAFAH1B2 inh: 4; PAFAH2 FP inh: -3; pPAFAH inh: 0
Shown for `COC(=O)c1[nH]c2ccc(C)cc2c1NC(=O)CN1CCc2cc(OC)c(OC)cc2C1` : PAFAH1B3 inh: 3; ZTA counter: -20; LYPLA2 inh: 1; EBNA-1 inh: 1; LYPLA1 inh: 3; PAFAH1B2 inh: -1; PAFAH2 FP inh: -4; pPAFAH inh: 7
Shown for `CC(=O)Nc1ccc(NC(=O)CSc2ccc(-c3ccco3)nn2)cc1` : PAFAH1B3 inh: 3; ZTA counter: -2; LYPLA2 inh: 5; EBNA-1 inh: -1; LYPLA1 inh: -1; PAFAH1B2 inh: -2; PAFAH2 FP inh: -7; pPAFAH inh: 3

A portion of the library; rates above refer to the full screens.
